Compound activity: PubChem, several laboratories
HIV Env fusion – HIV envelope-mediated fusion inhibition; HeLa-JRFL Env/CEM21 cell fusion, luciferase; inhibition, % at 12.3 µM; hit rate 1.1% among 360,000;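 active = mean replicate inhibition score of at least 50 and every replicate individually at or above 50; inconclusive = only one of the two criteria met; inactive = mean below 50 and not all replicates reaching 50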;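 also: 0% = plate neutral controls and 100% = maraviroc near 300 nM; one replicate is shown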
MT1-MMP act inh – blocks activation of human MT1-MMP | P50281 | HT1080 RFP-PRO-GFP cells, GFP/RFP ratio fluorescence, overnight; percent of plate control window, DMSO zero | GFP/RFP ratio change, % at 20 µM | hit rate 0.061% among 360,000 | AID 651647;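 active = GFP/RFP ratio change of at least 30% with cell ATP level not reduced by more than half and red fluorescence within 50% of control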; also: strong numbers were not always called active
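Compound: 20 µM single dose, 1% DMSO / System: HT1080 RFP-PRO-GFP cells / Controls: DMSO and RFP-L50D-GFP cell wells / Read-out basis: GFP/RFP fluorescence ratio / Schedule: overnight compound exposure at 37 °C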
PABP polyA inh – blocks human PABP binding to poly(A) RNA. P11940. fluorescence polarization. inhibition, % at 35 µM. hit rate 1% among 290,000. AID 2014;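 active = 50% or more with normal probe brightness, or confirmed in later tests; inconclusive = above 50% with abnormal brightness, or retests that disagree; inactive = below 50% or failed in later tests; about a fifth of its hits are not listed in these tables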;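 also: calls also rest on retests at 20 µM and on dose response follow-up; controls were probe without protein and protein plus probe with vehicle; some compounds called inactive have numbers as strong as hits; many hits fall short of the cut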
Target sequence (P11940 whole entry, looked up): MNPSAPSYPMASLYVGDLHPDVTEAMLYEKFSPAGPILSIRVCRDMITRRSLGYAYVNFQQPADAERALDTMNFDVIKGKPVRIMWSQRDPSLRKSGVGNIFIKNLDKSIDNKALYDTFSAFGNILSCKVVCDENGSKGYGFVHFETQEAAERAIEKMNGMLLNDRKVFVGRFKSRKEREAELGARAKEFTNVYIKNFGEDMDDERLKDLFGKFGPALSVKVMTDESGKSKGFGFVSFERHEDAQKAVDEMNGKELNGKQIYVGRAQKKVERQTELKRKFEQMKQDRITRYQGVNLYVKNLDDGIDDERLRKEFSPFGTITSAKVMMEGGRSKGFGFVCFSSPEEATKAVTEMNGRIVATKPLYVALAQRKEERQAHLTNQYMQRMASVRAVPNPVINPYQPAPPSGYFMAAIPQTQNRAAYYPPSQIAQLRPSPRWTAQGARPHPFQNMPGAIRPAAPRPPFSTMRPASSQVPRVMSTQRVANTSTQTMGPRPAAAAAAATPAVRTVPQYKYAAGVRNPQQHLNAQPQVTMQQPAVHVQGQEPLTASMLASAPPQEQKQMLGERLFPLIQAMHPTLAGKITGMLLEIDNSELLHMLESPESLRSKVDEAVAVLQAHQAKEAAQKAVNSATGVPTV
eIF4H inh – inhibitors of RNA binding by human eIF4H; Q15056; eIF4H fluorescence polarization binding assay; inhibition, % at 35 µM; hit rate 0.94% among 290,000;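 active = 50% or more with normal probe brightness, or confirmed in later tests; inconclusive = above 50% with abnormal brightness, or retests that disagree; inactive = below 50% or failed in later tests; about a fifth of its hits are not listed in these tables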;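 also: calls also rest on retests at 20 µM and on dose response follow-up; 0% = protein and probe with vehicle and 100% = probe without protein; strong numbers were not always called active; many hits fall short of the cut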
Rce1 inhib – yeast Ras-converting enzyme inhibition | yeast membranes, quenched prenylated peptide cleavage fluorescence | AID 2563 | hit rate 0.27% among 290,000 | Q03530 | calls only;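 active = fall in fluorescence gain of 50% or more versus controls, with final raw signal at or below 3038400; inconclusive = same 50% fall but final raw signal above 3038400; inactive = fall in fluorescence gain under 50%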;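 also: plate controls were neutral control wells for no effect and wells lacking membranes for full effect; tested at 10 µM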
CSC inhib – cancer stem cell inhibition; inhibition, % at 7.5 µM; cancer stem cell-like cells viability, luminescence; hit rate 1.1% among 300,000; AID 2717;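 active = mean at 75% or more and at least half the replicates too; inconclusive = mean and replicates disagree; tested in HMLE shEcad cells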;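 also: 0% = median of negative and 100% = median of positive control wells; the first replicate is given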
Yeast UUG start – modulators of start codon recognition fidelity in yeast | activity score, % at 18.7 µM | hit rate 0.13% among 350,000 | S. cerevisiae UUG-firefly luciferase reporter, luminescence/redox ratio | AID 602363;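 active = replicate mean at a twofold rise or more, about +100% in these data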;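 also: firefly luciferase made from a UUG start codon reports start codon fidelity; reporter light over untreated wells divided by growth signal over untreated wells; some hits fall short of that in this replicate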
MT1-MMP act inh RFP – second read-out of MT1-MMP act inh, no call of its own (marks repeat the call); RFP signal change, %; measured here: RFP expression control read;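 0 = vehicle wells; hits needed this value within 50% of zero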
Starred values were filed as active, the others as inactive; i = inactive; ? = inconclusive; nt = no result given.

SMILES | HIV Env fusion | MT1-MMP act inh | MT1-MMP act inh RFP | PABP polyA inh | eIF4H inh | Rce1 inhib | CSC inhib | Yeast UUG start
CCOc1cc(S(=O)(=O)n2nc(C)cc2C)ccc1Br | 11 | 0 | 0 | -12 | 0 | i | -19 | -14
COC(=O)c1[nH]c2cccc(OC)c2c1NC(=O)CN1CC2(C)CC1CC(C)(C)C2 (stereo unspecified) | nt | -1 | 4 | 3 | -3 | i | -3 | -9
CN(CC(=O)Nc1ccccc1Cl)C(=O)c1cc2c(s1)CCCCC2 | 1 | 10 | -2 | nt | nt | nt | nt | -15
C[C@@H]1O[C@@H](O[C@H]2[C@H](O)[C@@H](O)[C@H](Oc3c(-c4ccc(O)cc4)oc4cc(O)cc(O)c4c3=O)O[C@@H]2CO)[C@H](O)[C@H](O)[C@H]1O | 27 | -4 | -1 | nt | nt | nt | nt | -3
Cc1cc(CCC(=O)O)c(C)cc1CCC(=O)O | nt | -1 | 5 | 4 | -2 | i | -26 | -5
COc1ccc(C2=NN(CCC(=O)NC3CCCCC3C)C(=O)CC2)cc1 (stereo unspecified) | 31 | -2 | -1 | nt | nt | nt | nt | 15
CCN(CC)c1ccc(Nc2nc(-c3cccnc3)cs2)cc1 | -25 | -3 | 2 | -6 | -2 | i | 0 | -19
CCCCCOc1ccc(C(=O)OC(C)C(=O)NCc2ccco2)cc1 (stereo unspecified) | 10 | 4 | 4 | 13 | -12 | i | 1 | -6
Cc1ccnc(NS(=O)(=O)c2ccc(NS(=O)(=O)c3cccs3)cc2)n1 | -9 | -2 | 5 | 6 | 4 | i | -22 | -12
COCCC1CCCCN1C(=O)c1cccc(OC2CCN(C3CCCC3)CC2)c1 (stereo unspecified) | 11 | 1 | 3 | -4 | 14 | i | -3 | -15
N/C(=N\c1nc2ccccc2o1)NC(=O)c1ccc(Cl)cc1 | -6 | 3 | 2 | -9 | -11 | i | 1 | nt
CCN(CC)CCNC(=O)c1cc2cc3ccc(OC)cc3nc2o1 | -8 | 1 | 1 | 0 | -2 | ? | 1 | -14
Cc1ccc(N/C(N)=N/c2nc(C(F)(F)F)cc(C(F)(F)F)n2)cc1 | 8 | 0 | -2 | 18 | -3 | i | -3 | -15
O=C(CN1CCCCC1)NC(=O)NC1CCCC1 | 5 | -1 | 3 | 3 | 9 | i | -17 | nt
CC(=O)Nc1ccc(C(=O)CSc2nnc(Cc3ccccc3)o2)cc1 | 1 | 1 | -2 | 0 | -7 | i | nt | -10
COc1ccc(Cl)cc1S(=O)(=O)N1CCC(C(=O)N2CCOCC2)CC1 | -33 | 1 | 3 | 6 | 1 | i | -38 | -15
Cc1ccc(SCCC(=O)N/N=C/c2cccnc2)cc1 | -8 | -1 | -1 | -2 | 5 | i | -5 | nt
O=C(CSc1nc2ccccc2[nH]1)c1ccco1 | nt | 2 | 1 | 15 | 3 | i | 10 | -21
CCc1cc(-c2n[nH]c(=S)n2Cc2ccccc2)cs1 | -19 | 1 | -1 | -18 | -8 | i | -16 | -32
COc1ccc(NC(=O)Cn2nnc(-c3ccccc3)c2COc2ccc3ccccc3c2)cn1 | -84 | 3 | -5 | nt | nt | nt | nt | -7
O=c1cc(-c2ccc(F)cc2)[nH][nH]1 | nt | -1 | 0 | 6 | -5 | i | -23 | -6
CCC(C(=O)OCC(=O)NC1CCS(=O)(=O)C1)c1ccccc1 (stereo unspecified) | nt | -1 | 3 | nt | nt | i | 4 | -9
O=C(Nc1nc(-c2cccs2)cs1)c1ccco1 | -109 | 2 | 2 | -13 | 0 | i | -12 | nt
COc1ccc(C(=O)Nc2nc3ccccc3[nH]2)cc1 | -29 | 7 | 2 | 4 | -7 | i | 18 | -80
CC(O)c1nc2c(c(=O)n(C)c(=O)n2C)n1C (stereo unspecified) | -10 | -2 | 0 | 5 | -3 | i | 4 | -19
COc1cc(OC)c(N(C)S(=O)(=O)c2cccc(C(=O)OCC(=O)N(C)Cc3ccccc3)c2)cc1Cl | 14 | -1 | -9 | nt | nt | nt | nt | -7
COC(=O)c1c(NC(=O)CSc2nc3ccccc3c(=O)n2-c2ccccc2)sc(C)c1C | 7 | -4 | 0 | -8 | -4 | i | 21 | nt
NC(=O)CSc1nc2c(c(=O)n1-c1ccccc1)C1(CCCCC1)Cc1ccccc1-2 | 14 | -2 | -14 | -9 | 1 | i | 19 | nt
Cc1cc(S(=O)(=O)Nc2ccc(C(=O)N3CC(C)OC(C)C3)cc2)ccc1F (stereo unspecified) | -3 | -5 | 0 | nt | nt | i | nt | -13
CC(C)C(C(=O)NCc1ccco1)N(CC1CCCO1)C(=O)CNS(=O)(=O)c1ccccc1 (stereo unspecified) | 2 | -1 | -3 | 3 | -9 | i | nt | nt

Complete entries, quoted from the list. Values in the order: HIV Env fusion | MT1-MMP act inh | MT1-MMP act inh RFP | PABP polyA inh | eIF4H inh | Rce1 inhib | CSC inhib | Yeast UUG start
Cc1ccc(SCCC(=O)N/N=C/c2cccnc2)cc1 reads -8 | -1 | -1 | -2 | 5 | i | -5 | nt
COc1cc(OC)c(N(C)S(=O)(=O)c2cccc(C(=O)OCC(=O)N(C)Cc3ccccc3)c2)cc1Cl reads 14 | -1 | -9 | nt | nt | nt | nt | -7
O=C(Nc1nc(-c2cccs2)cs1)c1ccco1 reads -109 | 2 | 2 | -13 | 0 | i | -12 | nt

(next part)
SMILES | HIV Env fusion | MT1-MMP act inh | MT1-MMP act inh RFP | PABP polyA inh | eIF4H inh | Rce1 inhib | CSC inhib | Yeast UUG start
COC(=O)Cc1c(C)c2cc(Cl)c(OC(=O)c3ccco3)cc2oc1=O | nt | 9 | 0 | 4 | -2 | i | 3 | -6
C=CC(c1ccccc1)C(C(=O)c1ccccc1)N(C)C (stereo unspecified) | 9 | -1 | -1 | -2 | -7 | nt | nt | 4
CCCn1c(=N)c(S(=O)(=O)c2ccc(F)cc2)cc2c(=O)n3cccc(C)c3nc21 | 13 | 2 | 0 | -6 | 0 | i | 0 | -3
COc1ccc(-c2noc(CN(C(=O)c3cccs3)C(C)C)n2)cc1 | 12 | 4 | -3 | -4 | 5 | i | -6 | -1
O=C(c1ccc(Cl)cc1)C1CCCN(Cc2cnn(-c3ccccc3)c2)C1 (stereo unspecified) | 16 | 2 | -8 | -5 | -1 | i | 5 | 2
COc1ccc(CCNC(=O)CN(CCc2ccccc2)S(C)(=O)=O)cc1OC | 11 | 4 | 2 | -5 | -11 | i | 10 | -4
O=c1[nH]c(-c2cccnc2)nc2sc(-c3ccccc3)cc12 | -205 | 2 | -10 | 10 | 5 | nt | -7 | nt
CC(=O)N=c1c(C#N)cc2c(=O)n3ccccc3nc2n1CCCOC(C)C | -2 | 0 | -2 | 40 | 48 | i | 6 | 4
Cc1cc(N2CCCC2=O)ccc1S(=O)(=O)NC1CCCCC1 | 7 | 0 | -6 | 2 | 2 | i | -10 | -11
COc1ccc(OC)c(CNC(=O)C2CCCN(S(=O)(=O)N3CCC(C)CC3)C2)c1 (stereo unspecified) | 3 | -6 | -4 | -4 | 4 | i | -13 | -15
O=C(NCc1cc(C(F)(F)F)cc(C(F)(F)F)c1)C1CC(c2ccccc2F)=NO1 (stereo unspecified) | -11 | 0 | 0 | nt | nt | i | 5 | -20
COc1ccc(CC(=O)Nc2nc(-c3ccc(OC)c(OC)c3)cs2)cc1OC | 10 | -1 | -22 | 10 | 8 | i | 10 | -4
Cc1cccc(-c2n[nH]c(=S)n2Cc2ccccc2)c1 | 9 | nt | nt | 8 | 4 | i | 1 | -12
CC(=O)c1ccc(NC(=O)CCC(=O)OCC(F)(F)C(F)F)cc1 | -77 | 9 | 4 | 1 | 3 | i | -6 | -5
Cc1sc2nc(CSC(C)C(=O)NC3(C#N)CCCCC3)[nH]c(=O)c2c1C (stereo unspecified) | -1 | -16 | -3 | nt | nt | nt | nt | -14
Cc1ccc2nc(-c3ccncc3)[nH]c2c1 | -28 | 3 | -3 | 4 | -9 | i | -17 | -11
CC1Cc2ccccc2N1C(=O)COC(=O)Cn1cnc2ccccc2c1=O (stereo unspecified) | -102 | 3 | 4 | -9 | -7 | i | 2 | 27
COc1ccccc1CC(NC(C)=O)C(=O)NC1CCN(S(=O)(=O)c2ccccc2)CC1 (stereo unspecified) | 2 | -2 | -1 | 3 | -9 | i | nt | -29
O=C1OCC(CO)(CO)N=C1NNc1ccccc1[N+](=O)[O-] | 2 | 2 | 4 | -5 | -9 | i | 13 | -15
CC(=O)Nc1ccc(NC2CCCCC2NS(=O)(=O)c2ccccc2)cc1 (stereo unspecified) | -8 | 0 | 2 | -1 | -13 | i | -16 | -9
CN(C)c1nc(N)nc(CSc2nnnn2-c2cccc3ccccc23)n1 | 15 | -5 | -9 | -5 | -9 | i | 28 | -15
Fc1ccc(CN2CC[C@H]3C=CCc4cccc(c43)C2)cc1 | -1 | -13 | 0 | nt | nt | nt | 34 | -12
CCC1=C(OC(=O)N(CC)CC)N2C(=O)OC(=NCc3ccccc3)[C@]2(C)[C@H]2C1=CC[C@H]1C(=O)N(CC)C(=O)[C@H]12 | -42 | 1 | 0 | 2 | -10 | i | -15 | -3
COc1cc2c(cc1OC)C(C)N(C(=O)c1cccc([N+](=O)[O-])c1)CC2 (stereo unspecified) | 24 | -2 | -1 | -4 | -7 | i | 11 | nt
O=C1C[C@@H]2c3c(cccc3CN1Cc1ccc(Br)cc1)C[C@@H](O)[C@H]2O | -55 | 7 | 3 | nt | nt | nt | nt | -8
O=C(CSc1nc2ccccc2n1CC(=O)N1CCCCC1)N1CCCCC1 | -11 | 7 | 6 | 12 | 3 | i | nt | -29
CC(C)CNC(=O)/C(C#N)=C1\N=C(NC(=O)c2ccco2)c2ccccc21 | -5 | 1 | -1 | 1 | -4 | i | -8 | -17
CC(C)Nc1ncnc2c1ncn2[C@H]1CN(Cc2ccc(Cl)cc2)C[C@@H](CO)O1 | -7 | 9 | -1 | nt | nt | nt | nt | -6
CCCN1Cc2cccc(C(=O)N3CCN(c4ccc(OC)cc4)CC3)c2C1=O | 11 | -3 | 1 | 2 | 6 | i | -7 | nt
CC(C)(C)N1C(=O)c2ccc(C(=O)NCc3ccco3)cc2C1=O | -35 | -1 | 5 | -3 | -3 | i | nt | 9
CC1(C)Cc2c(sc(NC(=O)C(=O)NCC3CCCO3)c2C(=O)O)CO1 (stereo unspecified) | -7 | 2 | 5 | 1 | -6 | i | -20 | -9
CN1CCC(N(C)C(=O)COc2ccccc2-c2ccccc2)CC1 | -41 | 4 | 5 | 1 | 8 | i | 10 | -16
COc1ccc2c(c1)C(C)=CC(C)(C)N2S(=O)(=O)c1ccc(C)cc1 | -67 | 2 | -12 | -5 | -17 | i | -5 | nt
COc1ccc(C(=O)OCC(=O)NC2CCCCCCC2)cc1OC | nt | 8 | 3 | nt | nt | nt | -7 | -7
COc1ccc2ccc(C(C)(C(C)=O)C(=O)OC(C)C)cc2c1 (stereo unspecified) | 1 | 7 | -3 | nt | nt | nt | -4 | -4
Cc1cc(C)c2[nH]c(O)c(N=NC3=NC(=O)CS3)c2c1 | 3 | 8 | 3 | -1 | 33 | i | 1 | nt
CC(C(=O)C12CC3CC(CC(C3)C1)C2)N1CCOCC1 (stereo unspecified) | 8 | 1 | 1 | 5 | -4 | i | 15 | 3
Cc1c(Br)c([N+](=O)[O-])nn1CCCC(=O)N1CCN(c2ccccc2)CC1 | 1 | -1 | -2 | 1 | -2 | i | 6 | nt
CCOC(=O)NC(=O)CSc1cc(C)c2cc(C)cc(C)c2n1 | 10 | -2 | -4 | 4 | 7 | i | -12 | nt

Compounds as they come; about 2.9% have a hit in one of these screens.
